# Screens from PubChem BioAssay.
# LDHA inh: LDHA (human) enzyme inhibition. purified LDHA, NADH/diaphorase-resazurin fluorescence; active compounds read low. P00338. activity change, % (values are at about 110 or 230 µM). actives 0.15% (n = 480,000); in the data active means activity change below about -30%; inconclusive means mostly about -25% to -30%;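 further: plate controls were DMSO wells for no effect and wells without enzyme for full effect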
#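 Resorufin fluorescence (ex540/em590), read at 0 and 20 min after diaphorase/resazurin addition, reports the NADH left after a 5 min room-temperature reaction of 2 nM human LDH5 with 0.06 mM NADH and 0.2 mM pyruvate.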
# D1 ag: activates the human D1 dopamine receptor. HEK293 T-REx D1 cells, calcium flux, agonist mode. AID 504660. actives 1% (n = 360,000). P21728. activation, % at 2 µM; in the data active means activation above about 30%; further: 0% is about no effect
# Target sequence (P21728 whole entry, looked up): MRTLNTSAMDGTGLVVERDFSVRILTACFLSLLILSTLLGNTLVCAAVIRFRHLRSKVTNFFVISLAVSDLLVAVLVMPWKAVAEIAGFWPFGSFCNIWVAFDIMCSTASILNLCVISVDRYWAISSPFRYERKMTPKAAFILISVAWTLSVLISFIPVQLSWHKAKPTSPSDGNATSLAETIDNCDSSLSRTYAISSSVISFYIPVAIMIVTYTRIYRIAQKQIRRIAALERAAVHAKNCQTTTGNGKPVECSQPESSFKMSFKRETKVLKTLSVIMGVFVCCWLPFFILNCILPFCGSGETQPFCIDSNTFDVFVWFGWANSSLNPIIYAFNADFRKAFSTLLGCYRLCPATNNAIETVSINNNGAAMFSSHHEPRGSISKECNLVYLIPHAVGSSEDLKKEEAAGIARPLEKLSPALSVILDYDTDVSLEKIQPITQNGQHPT
#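 Inducible HEK293 T-REx D1 cells, force-coupled to calcium signalling, were plated at 4000 cells/well with tetracycline and held overnight at 30 C. After no-wash calcium dye loading, compound-evoked calcium rise over 180 s flagged agonists.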
# D1 PAM: human D1 dopamine receptor positive modulation; HEK293 TREx D1 cells, calcium flux, dopamine EC20 potentiation; actives 0.036% (n = 360,000); potentiation, % at 10 µM; in the data active means potentiation above about 30%; further: 0% is about no effect
# Vif-APOBEC3G blk: Vif-A3G binding inhibition. Q9HC16. HeLa A3G-eYFP + Vif (tagged APOBEC3G with the HIV-1 protein that degrades it), YFP fluorescence, overnight. Potency, µM (doses to about 46.1 µM), for inactives: top-dose activity, negative = active, hits mostly inhibitors. actives 0.076% (n = 410,000);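 further: potency means the concentration at half of the fitted maximal effect; on the % scale 0 is the no-effect control and ±100 the full control effect; nearly all actives have a fitted effect of over 60% in size; hits raise eYFP signal because A3G escapes Vif-driven loss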
# Target sequence (Q9HC16 whole entry, looked up): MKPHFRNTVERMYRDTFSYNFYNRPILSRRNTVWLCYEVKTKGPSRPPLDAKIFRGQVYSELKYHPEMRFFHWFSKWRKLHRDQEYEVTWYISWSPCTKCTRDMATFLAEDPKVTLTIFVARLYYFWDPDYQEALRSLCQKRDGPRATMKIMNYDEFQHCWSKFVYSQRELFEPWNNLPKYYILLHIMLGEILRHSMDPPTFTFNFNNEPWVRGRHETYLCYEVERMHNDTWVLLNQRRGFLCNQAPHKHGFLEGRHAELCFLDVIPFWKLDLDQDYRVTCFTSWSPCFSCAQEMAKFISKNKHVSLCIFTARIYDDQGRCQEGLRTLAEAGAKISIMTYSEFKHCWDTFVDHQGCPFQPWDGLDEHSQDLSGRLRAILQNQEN
#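 Read-out is eYFP fluorescence (Ex 488/Em 500-530) from Vif-expressing HeLa A3G-eYFP cells; more signal means A3G escaped Vif-mediated degradation. Cells plated overnight, compound pinned in, incubated overnight at 37 deg C.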
# D2 potentiator: positive allosteric modulators of human D2 dopamine receptor; P14416; HEK293 T-REx D2, calcium flux, EC20 dopamine potentiation; potentiation, % at 10 µM; actives 0.34% (n = 340,000); AID 485347;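 active means potentiation over 3 SD above the plate norm, cut at about 30% in these data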; further: 0% is about no effect
#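 Primary screen. Calcium kinetics in induced HEK293 T-REx D2 cells: compound pre-addition 180 s, EC20 dopamine, 180 s more.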
# Glioma ERSR ind: ER stress response induction in glioma. U87-MG GRP78 promoter luciferase reporter, 16 h. AID 602332. Potency, µM, without a hit: at the highest dose activation, usual class: activators. actives 0.02% (n = 420,000); further: potency means the concentration at half of the fitted maximal effect; series mostly up to about 76 µM; % of control where 0% means no effect; nearly all actives have a fitted effect of over 35% in size
#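 Stably transfected U87-MG human glioma cells carrying a GRP78-based luminescent sensor were seeded at 1000 cells/well, pin-dosed with compounds and incubated 16 h. Luciferase reagent was then added, and end-point luminescence was read after 10 min at room temperature.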
# Vif-A3F inh: inhibitors of Vif-A3F interaction. HeLa A3F-eYFP + Vif (tagged APOBEC3F with the HIV-1 protein that degrades it), YFP fluorescence increase. Potency, µM (top dose mostly 46.1 µM), for inactives: at the highest dose activity, negative = active. actives 0.2% (n = 390,000). AID 602313; further: potency means the concentration at half of the fitted maximal effect; % of control where 0% means no effect; nearly all actives have a fitted effect of over 65% in size
#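 HeLa cells stably expressing Vif plus C-terminally eYFP-tagged A3F were seeded, incubated overnight at 37 deg C, dosed with compound, incubated overnight again at 37 deg C. Yellow fluorescence (Ex 488/Em 500-530) reported blocked Vif-mediated A3F-eYFP degradation.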
# D1 antag: human D1 dopamine receptor antagonism. AID 504652. actives 3.2% (n = 360,000). activity change, negative = inhibition, % at 10 µM. HEK293 TREx D1 cells, calcium flux, dopamine EC80; active compounds read low. P21728; in the data active means activity change below about -30%; further: on the % scale 0 is the no-effect control and ±100 the full control effect
#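 Cells carrying a force-coupled, tetracycline-inducible human D1 receptor report calcium flux. Each well gets a 10 s baseline, compound with 180 s monitoring, then an EC80 dopamine stimulus with a second 180 s kinetic read.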
# Active calls of the source: *; ? = inconclusive; . = not tested or not shown; & = joins results of further samples. Unless noted, the call rests on the fitted dose curve; in most records, active means well fitted curve in the direction sought with a large enough effect; inconclusive means small, poorly fitted or top-dose-only effect, or another doubt; inactive means no such curve, though single readings can be large; an effect the other way counts as inactive or inconclusive. Not all compounds are listed; count on the stated rates, not on these rows.
molecule,LDHA inh,D1 ag,D1 PAM,Vif-APOBEC3G blk,D2 potentiator,Glioma ERSR ind,Vif-A3F inh,D1 antag
Cc1ccc2cc(C)c(N3CCN(c4ccccn4)CC3)nc2c1,0,5,-1,1%,12,4%,-6%,5
CSc1ccccc1OCc1cc(C(=O)N2CCN(c3ncccn3)CC2)no1,-3,2,-1,-2%,7,5%,0%,0
Cc1ccc(N2C(N)=NC(N)=NC23CCCC3)c(C)c1,-2,3,-3,-4%,-5,-5%,-4%,5
c1ccc(CSc2ccc3nnc(-c4cccnc4)n3n2)cc1,-12,0,-2,1%,18,0%,-2%,-4
[S-]c1nnc(-c2ccc(Br)cc2)n1-c1ccccc1.[Zn+2],-3,1,-13,1%,11,-3%,3%,-4
O=C(c1ccco1)N1CCN(C(=O)C2CC(=O)N(c3ccc(Cl)cc3)C2)CC1 (centres undefined),-6,2,2,1%,0,-3%,6%,9
CC(=O)c1ccc(N(C(=O)c2csnn2)C(C(=O)NC2CCCC2)c2ccccc2)cc1 (centres undefined),-6,2,.,5%,-1,1%,-5%,-2
O=c1oc2ccc(Br)cc2cc1-c1csc(-c2ccccc2)n1,-4,3,-2,-6%,-6,-2%,4%,-2
CCOCCCNC(=O)c1cn2c3c(ccc(Cl)c3c1=O)OC(C)C2 (centres undefined),3,0,-1,1%,-7,-5%,13%,-18
Cc1ccc(-c2nnc3c4ccccc4c(C)nn23)cc1NC(=O)c1ccccc1,-2,0,-4,-11%,5,-1%,?,-5
Cc1ccc(NC(=O)CS(=O)CC(=O)NC2CCN(Cc3ccccc3)CC2)c(C)c1 (centres undefined),2,0,1,-6%,-2,-5%,0%,9
COc1ccc(C2/C(=C(/O)c3ccc(F)cc3)C(=O)C(=O)N2CCCN2CCOCC2)cc1OC (centres undefined),0,0,-3,-1%,-6,-5%,0%,39
O=C(CSc1cn(CCNC(=O)c2ccccc2F)c2ccccc12)Nc1ccccc1F,-12,-1,-5,-4%,-1,0%,-4%,2
COCCn1c(=NC(=O)CCS(=O)(=O)c2ccccc2)sc2cc(C(=O)OC)ccc21,0,1,-2,1%,-5,-1%,2%,-5
CC1=C(C(=O)OCC2CCCO2)C(c2ccccc2OC(C)C)C2=C(CC(c3ccco3)CC2=O)N1 (centres undefined),1,1,-3,0%,1,-1%,-2%,5
CCc1nc(SCC(=O)NCc2ccccc2)c2c(=O)n(C)c(=O)n(C)c2n1,-6,-2,-10,2%,-7,-2%,3%,-8
O=C(CSc1nc2ccccc2nc1Cc1ccc(Cl)cc1)N1CCCc2ccccc21,8,3,1,0%,-3,-1%,3%,5
Cc1ccc(CNC(=O)CSc2nc3ccccc3nc2Cc2ccc(C)cc2)cc1,-3,1,-2,0%,-9,3%,0%,3
CCOC(=O)/C(C#N)=C1/C=C(C)NC(c2ccccc2O)=N1,-18,13,-7,3%,-8,-3%,-6%,-4
CC(C)Oc1ccc(CNC(=O)c2ccc3c(c2)N(C)CCS3)cc1,-2,3,-7,-3%,-19,8%,-2%,11
COc1cccc(N2CCN(Cc3cc(=O)oc4cc(C)ccc34)CC2)c1,1,0,2,5%,3,-1%,2%,-4
Cc1ccc(C(=O)OCc2cc(=O)n3c(C)csc3n2)s1,0,4,3,-15%,20,9%,1%,7
COc1cccc(Cc2nc3ccccc3nc2SCC(=O)NCCc2ccccc2)c1,-1,16,-4,3%,-1,1%,0%,4
CCCCC(=O)Nc1nnc(S(=O)(=O)N(C)Cc2ccccc2)s1,-13,0,0,3%,-8,-1%,-18%,9
CC1CCN(c2oc(/C=C/c3ccc(F)cc3)nc2C#N)CC1,-3&2,3,1,4%,-6,0%,8%,-3

# Gathered by group: those above containing bromine.
molecule,LDHA inh,D1 ag,D1 PAM,Vif-APOBEC3G blk,D2 potentiator,Glioma ERSR ind,Vif-A3F inh,D1 antag
[S-]c1nnc(-c2ccc(Br)cc2)n1-c1ccccc1.[Zn+2],-3,1,-13,1%,11,-3%,3%,-4
O=c1oc2ccc(Br)cc2cc1-c1csc(-c2ccccc2)n1,-4,3,-2,-6%,-6,-2%,4%,-2

# Additional structures:
molecule,LDHA inh,D1 ag,D1 PAM,Vif-APOBEC3G blk,D2 potentiator,Glioma ERSR ind,Vif-A3F inh,D1 antag
CCOc1cc(-c2nc3ccccn3c2NCC2CCCO2)ccc1O (centres undefined),0,-1,-4,-1%,.,1%,1%,14
O=C(Cn1c(=O)n(Cc2ccc3c(c2)OCO3)c(=O)c2oc3ccccc3c21)Nc1ccccc1,-3,3,2,-5%,-4,0%,?,3
N#CC(c1ccncc1)(c1ncc(C(F)(F)F)cc1Cl)N1CCOCC1 (centres undefined),-5,1,-1,-2%,12,0%,12%,-1
COc1ccc(C(C#N)Nc2ccccc2C)cc1 (centres undefined),0,3,0,1%,8,-4%,-5%,-1
CC(C)(C)c1ccc(C(=O)NC2(C(F)(F)F)C(=O)Nc3c2c(=O)[nH]c(=O)n3-c2ccccc2)cc1 (centres undefined),-6,-1,-3,5%,-4,-2%,-5%,10
CC(=O)Nc1cccc(NC(=O)c2sc3ncn(CC(=O)N4CCCCC4)c(=O)c3c2C)c1,-4,5,1,-7%,8,1%,9%,5
COc1ccc(NC(=O)CSc2nnc(-c3cccs3)n2-c2ccccc2)cc1,-1,0,-1,4%,4,-7%,6%,-5
COc1ccc(NC(=O)CSc2ccc3nnc(-c4cccnc4)n3n2)c(OC)c1,0,4,5,-4%,1,-2%,-36%,1
COCCn1c(=N)c(C(=O)NCC2CCCO2)cc2c(=O)n3ccccc3nc21 (centres undefined),1,3,0,-1%,4,1%,0%,12
CCOc1ccc(CCNc2nc3c(-c4ccc(C)cc4)nnn3c3ccccc23)cc1OCC,3,1,1,-4%,20,-2%,2%,-1
Cc1ccc(Cc2nc3ccccc3nc2SCC(=O)N2CCc3ccccc32)cc1,-4,2,-1,-5%,-7,-2%,-8%,10
COc1cccc(Cc2nc3ccccc3nc2SCC(=O)Nc2cccc(C)c2)c1,-4,10,-3,-2%,10,1%,-2%,-7
Cc1ncccc1C(=O)N1CCCC(CNC(=O)C2(c3ccc(Cl)cc3)CC2)C1 (centres undefined),-6,0,-3,-1%,2,0%,2%,5
COCCn1nnnc1C(c1cc2c(C)cc(C)cc2[nH]c1=O)N1CCCCCC1 (centres undefined),9,3,-6,1%,-15,-4%,-3%,-2
Cc1cccc(C)c1Nc1nnc(SCC(=O)Nc2sccc2C#N)s1,-1,18,-3,0%,1,0%,-11%,-10
COc1cccc2cc(C(=O)NCCN3CCOCC3)oc12,-1,3,-1,2%,-1,-2%,-6%,-3
CC(C)c1ccc(N2C(=O)N(Cc3ccccc3Cl)c3ccccc3S2(=O)=O)cc1,3,4,-3,2%,-5,-2%,2%,-3
Cc1ccc(CCNC(=O)c2cc(Nc3ccc(C)c(C)c3)nc3ccccc23)cc1,1,3,1,-2%,.,-4%,-1%,0
O=c1c(Br)c(Br)cnn1-c1ccccc1,-9,2,-3,-22%,-9,-18%,-9%,-13
C=CCn1c(=S)[nH]c2scc(-c3cccs3)c2c1=O,-11,14,-5,-9%,12,-3%,1%,-12
CC(C)CC(=O)Nc1ccc(C(=O)OCc2cc(=O)n3nc(C4CCCCC4)sc3n2)cc1,4,-1,-1,3%,2,-2%,1%,6
CC1(C)Cc2ccccc2C(/C(=N/O)C(N)=O)=N1,7,2,5,0%,2,-2%,-4%,3
Cc1ccc(Cc2nc3ccccc3nc2SCC(=O)NCc2ccc(F)cc2)cc1,-1,8,2,-6%,-4,-1%,-14%,5
CCCCN(CCCC)C(=O)c1sc2nc(N3CCOCC3)c3c(c2c1N)CCCC3,4,2,-4,3%,10,2%,1%,11
COc1cc(OC)c(NC(=O)c2nc(-c3ccncc3)no2)cc1Cl,-2,3,-4,5%,-13,-1%,-2%,-33*
CCc1c(O)cc(=O)n(-c2ccccc2)c1-c1ccccc1,-3,1,-6,-5%,2,-3%,-6%,-6
Cc1cc(Br)cc2c(C(=O)NCC3CCCO3)cc(-c3cccs3)nc12 (centres undefined),-9,6,-4,-10%,6,0%,-23%,2
COc1ccccc1-n1c(-c2ccc(NS(C)(=O)=O)cc2)n[nH]c1=S,-12,1,-6,0%,-2,-2%,-3%,14
Cc1ccc(N(C(=O)c2ccccn2)C(C(=O)NC2CCCCC2)c2ccncc2)cc1 (centres undefined),-4,-3,3,4%,-18,-2%,-2%,-25
Cc1nc2ccn(Cc3cccnc3)c(=O)c2cc1C(=O)Nc1ccc(OC(F)(F)F)cc1,3,1,-3,1%,8,-4%,3%,4
CCOc1ccc(NC(=O)CSc2cc(C)c3ccccc3n2)cc1,-6,4,3,-2%,.,-3%,9%,1
COC(=O)C1=NN(c2ccc(Cl)cc2)C2C(=O)N(c3ccccc3OC)C(=O)C12 (centres undefined),0,1,-3,0%,11,-3%,2%,3
Cc1cc(C)c(NC(=O)CSc2nncn3c2cc2oc(C)cc23)c(C)c1,-6,0,-2,-1%,1,2%,-6%,30
Cn1c(=O)c2c(ncn2Cc2ccc(Cl)c(Cl)c2)n(C)c1=O,-3&-4,30,-4,1%,-1,-3%,0%,-23
CCOC(=O)c1c(NC(=O)/C=C/c2ccc(Cl)cc2)sc2c1CCC(C)C2 (centres undefined),-14,-1,-2,11%,9,-2%,1%,-4
CCC(C)(C)n1nnnc1C(c1ccc2ncccc2c1)N1CCN2CCCC2C1 (centres undefined),1,4,-1,0%,3,-4%,1%,-2
Cc1cccc(C(=O)Nc2ccc(OCc3cc(=O)n4ccc(C)cc4n3)cc2)c1,-3,2,-1,1%,-2,-4%,4%,-1
O=C(Cc1n[nH]c(=O)c2ccccc12)OCC(=O)c1ccc2c(c1)OCCO2,3,2,1,?,-6,-1%,-7%,3
O=S(=O)(Nc1nc2ccccc2nc1Cl)c1ccccc1C(F)(F)F,-2,3,-4,-1%,9,-7%,6%,1
O=c1cc(CN2CCN(c3ccccc3)CC2)c2c(ccc3ccccc32)o1,5,1,-1,-9%,7,-3%,1%,-8
CCN(CC)S(=O)(=O)c1ccc(N2CCOCC2)c(NC(=O)c2cc(=O)[nH]c3ccccc23)c1,-3,1,-6,2%,8,-3%,3%,-6
